# Compound activity from PubChem.
# rRNA inh HTS: selective bacterial rRNA inhibition in E. coli; GFP signal change (wild-type ribosome), % (concentration not given with the values); hit rate 1.6% among 350,000; E. coli WT GFP vs humanized-ribosome RFP mutants, fluorescence, 24 h; active compounds read low; DMSO median 0, no signal -100;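 active = significant combined selectivity score with lowered wild-type GFP, culture density cut under 30%, mutant RFP and density less affected; inactive = any of these conditions unmet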; note: one replicate is shown; some compounds called inactive have numbers as strong as hits
# rRNA inh HTS OD600: second read-out of rRNA inh HTS, no call of its own (marks repeat the call); OD600 change, %; measured here: OD600 growth;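 optical density of the mix in the first replicate; 0 = DMSO median and -100 = no signal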
# rRNA inh HTS RFP: second read-out of rRNA inh HTS, no call of its own (marks repeat the call); RFP signal change, %; measured here: RFP humanized mutant strains;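 first replicate; 0 = DMSO median and -100 = no signal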
# * = called active by the depositor; & = joins results of further samples. These rows are one share of the data. The share of hits here may be higher or lower than overall.
SMILES,rRNA inh HTS,rRNA inh HTS OD600,rRNA inh HTS RFP
Cc1ccc(S(=O)(=O)N(C)C[C@@H]2Oc3c(NC(=O)c4cc(C)nn4C)cccc3C(=O)N([C@H](C)CO)C[C@H]2C)cc1,1,3,-1.3
Cc1noc(C)c1S(=O)(=O)Nc1ccc2c(c1)C(=O)N([C@H](C)CO)C[C@@H](C)[C@@H](CN(C)Cc1ccncc1)O2,0,-1,-2.5
Cc1ccc(S(=O)(=O)Nc2ccc3c(c2)CC(=O)N([C@H](C)CO)C[C@H](C)[C@@H](CN(C)C(=O)Nc2ccc(F)cc2)O3)cc1,3,2,1.5
COCC(=O)N(C)C[C@H]1Oc2cc(-c3ccccc3)ccc2S(=O)(=O)N([C@@H](C)CO)C[C@H]1C,-2,10,-2.1
C[C@@H](NC(=O)C[C@H]1CC[C@@H](NS(=O)(=O)c2cccc(F)c2)[C@H](CO)O1)c1ccccc1,7,6,0.5
NC(=O)c1cccc(Nc2nc(C(N)COCc3ccccc3)cs2)n1 (stereo unspecified),1,18,-3.1
O=C(O)C[C@@H]1C=C[C@H](NC(=O)c2ccncc2)[C@@H](CO)O1,1,2,-2.1
Cc1ccccc1-c1cnc2c(c1)C(=O)N([C@@H](C)CO)C[C@@H](C)[C@@H](CN(C)C(=O)c1cccnc1)O2,-2,1,-1.0
Cc1ccc(S(=O)(=O)Nc2cccc3c2O[C@H](CN(C)C(=O)Nc2ccc4c(c2)OCO4)[C@@H](C)CN([C@H](C)CO)C3=O)cc1,-3,-9,0.9
C[C@@H]1CN([C@H](C)CO)C(=O)c2cccc(NS(=O)(=O)c3ccc(F)cc3)c2O[C@@H]1CN(C)C(=O)NC1CCCCC1,-5,-5,-2.0

# In the list so far, seven contain four or more nitrogen atoms.
SMILES,rRNA inh HTS,rRNA inh HTS OD600,rRNA inh HTS RFP
Cc1ccc(S(=O)(=O)N(C)C[C@@H]2Oc3c(NC(=O)c4cc(C)nn4C)cccc3C(=O)N([C@H](C)CO)C[C@H]2C)cc1,1,3,-1.3
Cc1noc(C)c1S(=O)(=O)Nc1ccc2c(c1)C(=O)N([C@H](C)CO)C[C@@H](C)[C@@H](CN(C)Cc1ccncc1)O2,0,-1,-2.5
Cc1ccc(S(=O)(=O)Nc2ccc3c(c2)CC(=O)N([C@H](C)CO)C[C@H](C)[C@@H](CN(C)C(=O)Nc2ccc(F)cc2)O3)cc1,3,2,1.5
NC(=O)c1cccc(Nc2nc(C(N)COCc3ccccc3)cs2)n1 (stereo unspecified),1,18,-3.1
Cc1ccccc1-c1cnc2c(c1)C(=O)N([C@@H](C)CO)C[C@@H](C)[C@@H](CN(C)C(=O)c1cccnc1)O2,-2,1,-1.0
Cc1ccc(S(=O)(=O)Nc2cccc3c2O[C@H](CN(C)C(=O)Nc2ccc4c(c2)OCO4)[C@@H](C)CN([C@H](C)CO)C3=O)cc1,-3,-9,0.9
C[C@@H]1CN([C@H](C)CO)C(=O)c2cccc(NS(=O)(=O)c3ccc(F)cc3)c2O[C@@H]1CN(C)C(=O)NC1CCCCC1,-5,-5,-2.0

# Other results.
SMILES,rRNA inh HTS,rRNA inh HTS OD600,rRNA inh HTS RFP
COc1cccc(-c2ccc([C@@H]3[C@@H](CO)N4CCCCN(C(=O)NC(C)C)C[C@H]34)cc2)c1,0,8,0.5
O=C(c1cccnc1)N1C[C@@H]2[C@H](c3ccccc31)[C@@H](CO)N2C(=O)C1CCCC1,6,7,-1.6
C[C@@H]1CN([C@H](C)CO)C(=O)c2cccc(NC(=O)C3CCCCC3)c2O[C@H]1CN(C)Cc1ccc(C(=O)O)cc1,4,10,1.9
Cc1cnc(C(=O)OCC(=O)c2cc(C)n(CCc3ccc(F)cc3)c2C)cn1,4,-1,2.2
COc1ccc([C@@H]2CC=CC[C@H](C)Oc3ccccc3C(=O)N(C)[C@@H](C)C(=O)N2)c(OC)c1 (mixture of isomers),-3,-19,0.4
O=C(Cn1sc2ccccc2c1=O)Nc1ccc(Cl)cc1,-13,-2,0.5
CN(C)CCN1CCN(C2CN(Cc3cn(Cc4ccccc4C(F)(F)F)nn3)S(=O)(=O)C2)CC1 (stereo unspecified),5,9,-3.4
CO[C@H]1CN(C)C(=O)c2ccc(NC(=O)C3CCCC3)cc2OC[C@@H](C)N(CCC(F)(F)F)C[C@H]1C,-1,-12,-1.6
CC(=O)N(C)C[C@@H]1Oc2ncc(-c3cccc(C#N)c3)cc2C(=O)N([C@H](C)CO)C[C@@H]1C,-2,10,-2.1
C[C@H]1CN([C@@H](C)CO)S(=O)(=O)c2ccc(C3=CCCC3)cc2O[C@H]1CN(C)C(=O)Nc1ccc2c(c1)OCO2,-3,-11,6.3
COc1ccc(NC(=O)Nc2cccc3c2O[C@@H](CN(C)C(=O)Nc2cccc4ccccc24)[C@@H](C)CN([C@@H](C)CO)C3=O)cc1,-9,-19,-0.3
COCC#Cc1cnc2c(c1)C(=O)N([C@H](C)CO)C[C@H](C)[C@H](CN(C)S(=O)(=O)c1cccc(OC)c1)O2,0,9,-1.4
COc1ccc(NC(=O)Nc2ccc3c(c2)C(=O)N([C@@H](C)CO)C[C@H](C)[C@H](CN(C)S(=O)(=O)c2ccc(Cl)cc2)O3)cc1,-5,-13,0.2
CNc1ccc2ncc(-c3ccccc3C(C)=O)n2n1,-12,2,-3.3
C[C@H]1CN([C@@H](C)CO)C(=O)c2cc(NC(=O)Nc3ccc(C(F)(F)F)cc3)ccc2O[C@H]1CN(C)S(=O)(=O)c1ccccc1,6,4,-0.6
C/C=C/c1ccc2c(c1)O[C@@H](CN(C)C(=O)Cc1cccnc1)[C@H](C)CN([C@@H](C)CO)S2(=O)=O,3,-1,-2.9
COc1ccccc1-c1ccc2c(c1)[C@@H]1[C@@H](CCN1C(=O)C1CCOCC1)[C@@H](CO)N2,3,7,1.5
O=C1OCCOC2CCCc3oc(-c4ccccc4)c1c32 (stereo unspecified),-7,0,-1.5
C[C@@H]1CCCCO[C@@H](CN(C)C(=O)Nc2ccc(C(F)(F)F)cc2)[C@@H](C)CN([C@H](C)CO)C(=O)c2cc(NS(=O)(=O)c3ccc(F)cc3)ccc2O1,0,4,-2.7
COc1ccc(Cl)cc1Cn1c(C)c(C(=O)NCc2cccc([N+](=O)[O-])c2)sc1=O,-2,7,-4.5
C[C@H]1CN([C@@H](C)CO)C(=O)c2cccc(NC(=O)C3CCOCC3)c2O[C@@H]1CN(C)Cc1ccc(C(=O)O)cc1,1,3,-0.8
COc1ccc(S(=O)(=O)N(C)C[C@@H]2OCc3cnnn3CCCC(=O)N([C@@H](C)CO)C[C@@H]2C)cc1,8&0,16&-4,-1.7&1.1
C/C=C/c1ccc([C@@H]2[C@H](CO)N[C@H]2CNS(=O)(=O)c2ccccc2)cc1,1,-23,6.8
COc1ccc(CN(C)C[C@@H]2OCCCC[C@@H](C)Oc3ccc(NC(=O)c4ccncc4)cc3C(=O)N([C@@H](C)CO)C[C@H]2C)cc1,0,1,-1.9
CC(C)NC(=O)N(C)C[C@@H]1Oc2cc(C#Cc3cccc(F)c3)ccc2S(=O)(=O)N([C@@H](C)CO)C[C@H]1C,-3,-1,9.3
CC(C)CC#Cc1cnc2c(c1)C(=O)N([C@H](C)CO)C[C@@H](C)[C@@H](CN(C)C(=O)c1ccc(F)cc1)O2,-1,-7,0.2
O=S1(=O)CC(N2CCC(Cc3ccccc3)CC2)CN1C1CCCCC1 (stereo unspecified),-38,-65,-4.5
O=C(C[C@H]1C[C@H]2c3cc(NC(=O)Nc4ccccc4F)ccc3O[C@H]2[C@@H](CO)O1)NCc1ccc(Oc2ccccc2)cc1,-4,3,-3.9
COc1ccc2c3c(n(C)c2c1)[C@H](CO)N(CC1CCCC1)CC31CCN(C(C)=O)CC1,6,2,-4.8
COc1ccc(NC(=O)N(C)C[C@@H]2Oc3cc(C#CCN(C)C)ccc3S(=O)(=O)N([C@@H](C)CO)C[C@@H]2C)cc1,3,6,-1.2
O=C(C[C@@H]1CC[C@H](NC(=O)C2CC2)[C@@H](CO)O1)Nc1ccccc1,1,1,-0.5
O=C(NCC1CCCCC1)[C@@H]1[C@@H](CO)[C@@H]2Cn3c(cccc3=O)[C@@H]2N1Cc1ccccn1,0,3,-1.4
CO[C@H]1CN(C)C(=O)c2cc(NC(=O)C3CCOCC3)ccc2OC[C@H](C)N(Cc2cccnc2)C[C@@H]1C,2,1,-0.3
CCC(=O)N1[C@H](CNC(=O)CN2CCOCC2)[C@@H](c2ccccc2)[C@@H]1CO,3,9,-2.8
C[C@@H]1CN([C@H](C)CO)C(=O)Cc2cc(NC(=O)Cc3ccccc3)ccc2O[C@@H]1CN(C)S(C)(=O)=O,3,9,-1.0
O=C([C@H]1[C@H](CO)[C@H]2Cn3c(cccc3=O)[C@@H]1N2S(=O)(=O)c1ccccc1F)N1CCOCC1,1,-2,-0.7
CS(=O)(=O)Nc1cccc(-c2cc(NC=O)c3ncc(-c4ccc(F)cc4)n3c2)c1,-15,-23,7.0
C[C@@H](O)C#Cc1ccc([C@H]2[C@@H](CO)N3CCCCN(C(=O)c4ccc5c(c4)OCO5)C[C@H]23)cc1,4,0,2.6
COc1ccc(CN(C)C[C@@H]2Oc3ccc(NC(=O)CCC(F)(F)F)cc3CC(=O)N([C@@H](C)CO)C[C@@H]2C)cc1,0,-6,1.1
C[C@@H]1CN([C@H](C)CO)C(=O)Cc2cc(NC(=O)Nc3ccc(C(F)(F)F)cc3)ccc2O[C@@H]1CN(C)Cc1ccc2c(c1)OCO2,6,-13,2.0
CO[C@@H]1CN(C)C(=O)c2cc(NC(=O)C3CC3)ccc2OC[C@H](C)NC[C@H]1C,0,-2,-0.7
CCC(C)NC(=O)c1ccc(N2CC3CC(C2)c2cccc(=O)n2C3)c(NC(=O)c2c(F)cccc2F)c1 (stereo unspecified),-3,-4,-3.2
O=C(NCc1cccs1)c1cccc2c(-c3cccnc3)coc12,-23,-31,-6.0
C[C@H]1CN([C@@H](C)CO)C(=O)c2cc(NS(=O)(=O)c3cn(C)cn3)ccc2O[C@@H]1CN(C)C(=O)Nc1ccccc1,1,3,-3.0
COc1cccc(-c2cnc3c(NC=O)cc(-c4cccc(NC(C)=O)c4)cn23)c1,-6,-9,0.4
CCC(c1nnnn1-c1ccc(OC)cc1)N1CCN(C/C=C/c2ccccc2)CC1 (stereo unspecified),-36,-61,19
O=C(C[C@H]1CC[C@H](NC(=O)c2ccccn2)[C@H](CO)O1)NCc1cc(F)cc(F)c1,0,-3,0.5
C[C@@H]1CN([C@H](C)CO)C(=O)c2cc(/C=C/c3ccccc3)cnc2O[C@@H]1CN(C)C(=O)C1CCCCC1,-4,-7,1.3
CO[C@@H]1CN(C)C(=O)c2cc(NC(=O)c3ccc(F)cc3)ccc2OC[C@@H](C)N(C(C)=O)C[C@@H]1C,3,6,-2.1
C[C@@H]1CCCCO[C@H](CN(C)C(=O)CCCN(C)C)[C@@H](C)CN([C@H](C)CO)C(=O)c2cc(NC(=O)Nc3ccc(C(F)(F)F)cc3)ccc2O1,0,-4,1.9
# Following part.
SMILES,rRNA inh HTS,rRNA inh HTS OD600,rRNA inh HTS RFP
O=C(CCN1CCCCC1)N[C@H]1CC[C@H](CCNS(=O)(=O)c2ccccc2)O[C@@H]1CO,2,5,-0.9
C[C@@H]1CN([C@@H](C)CO)C(=O)c2cc(C#Cc3ccccc3F)cnc2O[C@H]1CN(C)S(=O)(=O)c1ccccc1,-2,-6,0.3
C[C@@H]1CN([C@@H](C)CO)S(=O)(=O)c2ccc(Br)cc2O[C@H]1CN(C)C(=O)Cc1cccnc1,12&0,6&14,2.0&-0.2
COc1ccc(S(=O)(=O)Nc2ccc3c(c2)CC(=O)N([C@@H](C)CO)C[C@@H](C)[C@H](CN(C)C(=O)Nc2cccc4ccccc24)O3)cc1,5,7,2.4
CC1(C(=O)NCc2ccccc2)CSCC(=O)N1CCc1c[nH]c2ccccc12 (stereo unspecified),-41*,-32*,-6.0*
CCCN1C[C@H](C)[C@H](OC)CN(C)C(=O)c2cc(NC(=O)c3cccc(OC)c3)ccc2OC[C@H]1C,0,0,-1.8
O=C([C@@H]1[C@@H](CO)[C@@H]2Cn3c(ccc(-c4cncnc4)c3=O)[C@@H]2N1C(=O)C1CCC1)N1CCCCC1,4,4,-5.1
CC1(C)CC(=O)C(CC(=O)c2ccccc2)=C(NN=C(N)N)C1,0,1,-0.6
COc1ccc(S(=O)(=O)N(C)C[C@@H]2OCCCC[C@@H](C)Oc3ccc(NS(=O)(=O)c4cn(C)cn4)cc3C(=O)N([C@@H](C)CO)C[C@H]2C)cc1,-6,-9,2.1
C[C@@H]1CN([C@H](C)CO)S(=O)(=O)c2ccc(Br)cc2O[C@@H]1CN(C)Cc1ccccc1,-5,-12,-3.0
CNC[C@H]1Oc2ccc(NS(C)(=O)=O)cc2C(=O)N([C@H](C)CO)C[C@H]1C,1,4,-1.8
COCC(=O)NC[C@H]1[C@@H](c2ccc(C3=CCCC3)cc2)[C@H](CO)N1C(=O)C1CC1,3,11,-2.6
CC(C)NC(=O)Nc1ccc2c(c1)CC(=O)N([C@@H](C)CO)C[C@H](C)[C@H](CN(C)Cc1ccc(-c3ccccc3)cc1)O2,-6,-32,5.1
C[C@H]1CN([C@@H](C)CO)C(=O)c2c(c3ccccc3n2C)-c2ccccc2CO[C@H]1CN(C)C(=O)c1ccccc1,-3,-10,4.4
CNC(=O)C[C@H]1CC[C@@H]2[C@@H](COc3ccc(NC(=O)C4CCCCC4)cc3C(=O)N2C)O1,1,3,-1.3
CC(C)NC(=O)N(C)C[C@@H]1Oc2ccc(NS(C)(=O)=O)cc2C(=O)N(C)C[C@H]1C,1,-4,-1.1
